# From PubChem BioAssay
# Env fusion inh: inhibitors of HIV Env-mediated cell fusion. HeLa-JRFL Env/CEM21 cell fusion, luciferase. AID 651610. inhibition, % at 12.3 µM. hit rate 1.1% among 360,000;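 active means mean replicate inhibition score of at least 50 and every replicate individually at or above 50; inconclusive means only one of the two criteria met; inactive means mean below 50 and not all replicates reaching 50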;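 further: 0% = plate neutral controls and 100% = maraviroc near 300 nM; one replicate is shown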
# Yeast UUG start: yeast start codon fidelity modulation; S. cerevisiae UUG-firefly luciferase reporter, luminescence/redox ratio; activity score, % at 18.7 µM; hit rate 0.13% among 350,000;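 active means replicate mean at a twofold rise or more, about +100% in these data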;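 further: firefly luciferase made from a UUG start codon reports start codon fidelity; reporter light over untreated wells divided by growth signal over untreated wells; some hits fall short of that in this replicate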
# CSC inhib: cancer stem cell inhibition | inhibition, % at 7.5 µM | cancer stem cell-like cells viability, luminescence | hit rate 1.1% among 300,000;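 active means mean at 75% or more and at least half the replicates too; inconclusive means mean and replicates disagree; tested in HMLE shEcad cells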;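 further: 0% = median of negative and 100% = median of positive control wells; the first replicate is given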
# Rce1 inhib: yeast Ras-converting enzyme inhibition | yeast membranes, quenched prenylated peptide cleavage fluorescence | calls only | Q03530 | hit rate 0.27% among 290,000;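 active means fall in fluorescence gain of 50% or more versus controls, with final raw signal at or below 3038400; inconclusive means same 50% fall but final raw signal above 3038400; inactive means fall in fluorescence gain under 50%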;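 further: plate controls were neutral control wells for no effect and wells lacking membranes for full effect; tested at 10 µM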
# Target sequence (Q03530 whole entry, looked up): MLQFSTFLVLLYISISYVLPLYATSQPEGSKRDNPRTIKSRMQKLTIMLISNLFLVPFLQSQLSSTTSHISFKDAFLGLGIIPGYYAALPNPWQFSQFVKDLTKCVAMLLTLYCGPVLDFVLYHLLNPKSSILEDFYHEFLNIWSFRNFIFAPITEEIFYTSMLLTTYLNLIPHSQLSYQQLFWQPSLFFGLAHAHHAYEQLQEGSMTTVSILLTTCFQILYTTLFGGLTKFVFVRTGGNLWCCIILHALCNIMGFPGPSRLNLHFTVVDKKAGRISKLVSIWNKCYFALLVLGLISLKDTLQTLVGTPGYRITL
# PABP FP inh: blocks human PABP binding to poly(A) RNA; P11940; fluorescence polarization; inhibition, % at 35 µM; hit rate 1% among 290,000; AID 2014;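 active means 50% or more with normal probe brightness, or confirmed in later tests; inconclusive means above 50% with abnormal brightness, or retests that disagree; inactive means below 50% or failed in later tests; about a fifth of its hits are not listed in these tables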;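 further: calls also rest on retests at 20 µM and on dose response follow-up; controls were probe without protein and protein plus probe with vehicle; some compounds called inactive have numbers as strong as hits; many hits fall short of the cut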
# Target sequence (P11940 whole entry, looked up): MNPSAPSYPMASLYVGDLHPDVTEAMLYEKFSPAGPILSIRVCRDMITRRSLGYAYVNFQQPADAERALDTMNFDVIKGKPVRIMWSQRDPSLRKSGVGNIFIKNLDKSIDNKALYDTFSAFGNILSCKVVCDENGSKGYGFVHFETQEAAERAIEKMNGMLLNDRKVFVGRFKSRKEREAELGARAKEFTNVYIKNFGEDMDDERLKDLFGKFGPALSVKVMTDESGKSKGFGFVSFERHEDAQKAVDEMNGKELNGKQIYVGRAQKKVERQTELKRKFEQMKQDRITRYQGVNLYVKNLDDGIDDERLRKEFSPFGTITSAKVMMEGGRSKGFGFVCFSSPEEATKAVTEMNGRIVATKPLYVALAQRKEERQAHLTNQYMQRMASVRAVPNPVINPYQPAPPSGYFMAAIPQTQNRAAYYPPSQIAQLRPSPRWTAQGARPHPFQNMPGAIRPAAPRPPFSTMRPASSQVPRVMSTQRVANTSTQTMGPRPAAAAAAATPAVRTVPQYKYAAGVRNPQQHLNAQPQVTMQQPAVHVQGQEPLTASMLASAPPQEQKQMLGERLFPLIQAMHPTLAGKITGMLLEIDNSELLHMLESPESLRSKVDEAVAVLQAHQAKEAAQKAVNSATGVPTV
# MT1-MMP act inh: blocks activation of human MT1-MMP | P50281 | HT1080 RFP-PRO-GFP cells, GFP/RFP ratio fluorescence, overnight; percent of plate control window, DMSO zero | GFP/RFP ratio change, % at 20 µM | hit rate 0.061% among 360,000 | AID 651647;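 active means GFP/RFP ratio change of at least 30% with cell ATP level not reduced by more than half and red fluorescence within 50% of control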; further: strong numbers were not always called active
#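 Compound: 20 µM single dose, 1% DMSO / System: HT1080 RFP-PRO-GFP cells / Controls: DMSO and RFP-L50D-GFP cell wells / Read-out basis: GFP/RFP fluorescence ratio / Schedule: overnight compound exposure at 37 °C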
# eIF4H inh: inhibitors of RNA binding by human eIF4H; Q15056; eIF4H fluorescence polarization binding assay; inhibition, % at 35 µM; hit rate 0.94% among 290,000;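 active means 50% or more with normal probe brightness, or confirmed in later tests; inconclusive means above 50% with abnormal brightness, or retests that disagree; inactive means below 50% or failed in later tests; about a fifth of its hits are not listed in these tables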;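 further: calls also rest on retests at 20 µM and on dose response follow-up; 0% = protein and probe with vehicle and 100% = probe without protein; strong numbers were not always called active; many hits fall short of the cut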
# MT1-MMP act inh RFP: second read-out of MT1-MMP act inh, no call of its own (marks repeat the call); RFP signal change, %; measured here: RFP expression control read;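 0 = vehicle wells; hits needed this value within 50% of zero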
# * = called active by the depositor; i = inactive; ? = inconclusive; · = no result given.
SMILES,Env fusion inh,Yeast UUG start,CSC inhib,Rce1 inhib,PABP FP inh,MT1-MMP act inh,MT1-MMP act inh RFP,eIF4H inh
Cc1ccc([N+](=O)[O-])cc1-c1ccc(/C=N/NC(=O)c2cc3c(ccc4ccccc43)o2)o1,·,-18,22,i,-4,3,1,5
C=CCn1c(N)cc(=O)nc1SC(CC)C(=O)Nc1ccc(C(C)=O)cc1 (stereo unspecified),-7,-2,-16,·,-8,-1,3,1
Cn1c(=O)[nH]c(=O)c2c1nc(Br)n2CCCSc1nc2ccccc2o1,0,-23,·,i,10,-2,-6,-6
CCCCOc1ccc(/C=C/C(=O)OCC(=O)c2c(N)n(C)c(=O)n(C)c2=O)cc1OCC,6,·,6,i,9,-3,1,6
O=c1ncn(-c2ccc(F)cc2)c2ncccc12,-52,-17,-11,i,-7,-1,1,-6
O=C(O)c1cc2ccc3ccccc3c2oc1=O,·,-12,-13,i,-2,4,-2,1
Oc1ccc(Br)cc1/C=N/n1cnc2ccccc21,-30,-6,-4,i,-5,2,1,0
Cc1cc(C)n(-c2ccc(F)cc2)c(=O)c1C(=O)O,12,·,0,i,3,-1,-1,-5
c1ccc2c(Nc3nnc(-c4ccncc4)s3)cccc2c1,·,0,7,i,8,-1,-1,-7
CCOc1cc(/C=N\NC(=O)Cc2ccccc2)ccc1OCC(=O)Nc1ccc(C)c(C)c1,·,-1,-21,·,-3,-2,-2,3
CCN1CCN(c2ccc(NC(=O)CC3OC(=O)c4ccccc43)cc2C)CC1 (stereo unspecified),7,-17,·,·,·,2,6,·
Cc1nc(-c2ccc(C#N)cc2)cs1,-8,·,-8,·,-9,7,0,-12
Cc1ccc(-c2nc(C#N)c(NCCN3CCCCC3)o2)cc1,-8,-7,-9,·,-8,5,6,6
CCN(CC)CCN1C(=O)c2ccccc2NC1c1ccc(N(C)C)cc1 (stereo unspecified),·,-24,1,i,4,4,1,-2
COC(=O)Nc1nnc(COc2ccccc2)s1,-5,-1,-20,i,-1,1,1,-8
O=C(Oc1cc(Cl)cc(Cl)c1)c1cnc2n(c1=O)CCS2,9,-26,1,i,-3,2,3,-4
C=CCn1c(SCC(=O)Nc2cc(Cl)ccc2C(=O)O)nc2sc(C)c(C)c2c1=O,-3,-21,38,·,·,2,2,·
CC(C)(C)c1ccc(C2(C)NC(=O)N(CC(=O)c3ccc[nH]3)C2=O)cc1 (stereo unspecified),·,-19,-12,i,-1,9,-1,3
CNC(=O)CCc1nc(-c2ccc(C(C)(C)C)cc2)no1,·,-7,-7,i,-4,8,0,-7
COC(=O)Cn1c(N)[n+](Cc2ccccc2)c2ccccc21,·,2,-3,i,·,-2,1,·
Cc1noc(C)c1COc1cccc(C(=O)OC(C)C(=O)Nc2ccc3c(c2)OCO3)c1 (stereo unspecified),-6,-19,·,i,-6,-3,-16,-4
CCCN1C(=O)c2ccc(C(=O)NC3CCCCC3)cc2C1=O,-41,·,4,i,-9,2,3,-5
CC(=O)C(Sc1ccc2nnc(-c3ccc(F)cc3)n2n1)C(C)=O,17,-18,-13,i,1,-2,0,-4
O=C(CN1CCN(C(=O)C2CCCO2)CC1)Nc1c(Cl)cccc1Cl (stereo unspecified),-9,-7,-9,i,-12,-3,1,-6
CCN(c1ccccc1)S(=O)(=O)c1ccc(OC)c(NC(=O)C2CC(=O)N(Cc3ccccc3)C2)c1 (stereo unspecified),28,·,-11,i,8,-1,-3,-2
Cc1cc(Cl)ccc1NC(=S)N1CCOCC1,0,-13,-4,i,?,0,1,0
CCN(CC)CCCN(Cc1cc2cc3c(cc2[nH]c1=O)OCO3)C(=S)NCc1ccco1,-1,·,·,i,?,-7,-2,?
CC1CCCCC1NC(=O)c1ccc(-n2cncn2)c([N+](=O)[O-])c1 (stereo unspecified),·,·,5,i,·,2,1,·
COCC(C)n1c(COc2ccccc2F)nnc1SCC(=O)Nc1oc(C)c2c(C)n[nH]c(=O)c12 (stereo unspecified),-1,31,-1,i,·,-5,-1,·
O=C(NNC(=S)NCc1ccccc1)c1cccc([N+](=O)[O-])c1,-16,-26,-19,i,-10,3,5,4
O=C(COC(=O)c1ccc([N+](=O)[O-])s1)NCc1ccc(F)cc1,·,-8,-9,i,6,-1,1,-5
O=C(Nc1nc2ccccc2s1)C1CC(=O)N(c2ccc(Br)cc2)C1 (stereo unspecified),-2,-16,5,i,3,-1,0,7
Clc1ccc(-c2nn3cnnc3s2)c(Cl)c1,i,-30,7,i,-4,0,2,-6
CC(CCc1ccccc1)NC(=O)COC(=O)c1ccc(NC(N)=O)cc1 (stereo unspecified),3,-8,-2,i,11,2,1,-1
Cc1cc(C=NCCCO)c(C)n1-c1cc(Cl)ccc1Cl,-9,·,·,i,-10,2,-1,-6
COc1ccc(OC)c(NC(=O)C2CCCNC2=O)c1 (stereo unspecified),·,-9,5,i,-1,0,3,6

# Three of the entries above in order of the Env fusion inh value, lowest first:
SMILES | Env fusion inh | Yeast UUG start | Rce1 inhib | MT1-MMP act inh | MT1-MMP act inh RFP
O=C(Nc1nc2ccccc2s1)C1CC(=O)N(c2ccc(Br)cc2)C1 (stereo unspecified) | -2 | -16 | i | -1 | 0
Cc1cc(Cl)ccc1NC(=S)N1CCOCC1 | 0 | -13 | i | 0 | 1
CCN(c1ccccc1)S(=O)(=O)c1ccc(OC)c(NC(=O)C2CC(=O)N(Cc3ccccc3)C2)c1 (stereo unspecified) | 28 | · | i | -1 | -3

# Continued:
SMILES,Env fusion inh,Yeast UUG start,CSC inhib,Rce1 inhib,PABP FP inh,MT1-MMP act inh,MT1-MMP act inh RFP,eIF4H inh
Cc1cc(-c2ccccc2)nc(SCc2ccc(C(=O)O)o2)n1,·,49,-6,i,4,-2,4,4
CC(=O)Nc1ccc(NC(=O)COC(=O)c2ccccc2SCC(=O)N2CCCC2)cc1,-9,-7,-9,i,·,3,1,·
O=C1c2cccc3cccc(c23)C(=O)N1c1ccccc1Cl,29,-5,0,i,9,-1,-3,-2
O=C(Cc1cccc(NC(=O)C2CCN(C(=O)C3CCCCC3)CC2)c1)Nc1cccc(C(=O)N2CCCCC2)c1,-2,-3,·,·,·,2,-1,·
Cn1c(=O)c(C(=O)NNC(=O)c2ccc(Br)cc2)c(O)c2ccccc21,18,20,?,i,0,-1,2,10
O=Cc1cnc(N2CCN(Cc3ccccc3)CC2)s1,1,1,-6,i,11,0,-1,-4
O=C(COC(=O)c1cccc(C(F)(F)F)c1)NCc1ccc(Cl)cc1,19,7,-1,i,-12,4,8,-2
CC(C)COc1nc2ccccc2c(=O)n1OCC(=O)O,·,-8,-24,i,-17,3,3,3
c1cc(-c2ccncc2)ccn1,-10,-20,11,i,3,-1,3,-1
CCOC(=O)/C=C1\CC(=O)Nc2cc(C)c(C)cc2N1,·,·,-9,i,-3,4,1,-3
O=C(Nc1ccccc1Cl)c1ccc2ccccc2c1,-18,-1,-6,i,7,-2,0,-3
CN(CC(=O)NC1CCN(Cc2ccccc2)CC1)S(=O)(=O)c1ccc2c(c1)c(=O)n(C)c(=O)n2C,-20,·,-2,i,-4,-1,-1,-2
C=C(C)C1CC=C(C)/C(=N/NC(=O)COc2ccccc2Cl)C1 (stereo unspecified),-3,·,29,i,2,7,5,17
Cc1cc(C)c2c(=O)n3c(nc2c1)C(Cc1ccccc1)NC(=O)c1cccnc1-3 (stereo unspecified),13,-3,·,·,·,-3,-1,·
CSc1ncnc2c1ncn2CCCNCc1ccccn1,-42,-17,·,·,·,1,8,·
CN1CCN(c2nc(-c3ccccc3)nc(-c3ccc(F)cc3)c2C#N)CC1,8,·,30,i,5,0,-1,4
CCOc1ccc(-c2c(C(=O)N/N=C/c3ccc(C)o3)nnn2-c2nonc2N)cc1,-2,-22,-13,i,4,-1,-2,-6
Cc1ccc(N=Nc2c(O)[nH]c3ccc(F)cc23)cc1,-99,10,3,i,?,-91,3,?
O=C1N(Cc2cccnc2)C[C@@H]2C[C@@H](c3cccc(Oc4ccccc4)c3)N3CCC[C@@]123,7,-19,-6,i,3,-5,-7,1
CN(C)CCCn1c(N)c(C#N)c2nc3ccccc3nc21,0,-4,-4,?,?,-72,25,?
Cn1c2ccccc2c2cc(/C=N/NC(=O)c3cc(O)cc(O)c3)ccc21,·,-6,-4,i,65*,-3,1,95*
COc1ccc(-c2n[nH]c(C)c2-c2ccc(Cl)cc2)c(O)c1,·,·,47,i,-8,2,-3,-1
CC(Oc1ccccc1)c1ccnc2nc(N3CCOCC3)nn12 (stereo unspecified),30,-10,-18,i,7,-1,-1,7
CCOC(=O)N(C)c1c(CC)nc2c(OCc3ccccc3C(=O)OC)cccn12,-9,-24,·,·,·,1,0,·
Cc1cc(C)cc(OCC(O)CN2CC(C)OC(C)C2)c1 (stereo unspecified),7,-18,-12,i,7,0,-1,3
O=c1nc2ccccc2c2n1CC(CN1CCN(c3ccc(F)cc3)CC1)N2 (stereo unspecified),·,-13,21,i,-4,6,-6,3
CCCNC(=O)c1cccc(Br)c1,-11,·,-8,i,-10,2,0,-10
COc1cc(NC(=O)CSc2nnc3c(n2)[nH]c2ccc(S(=O)(=O)NC(C)C)cc23)cc(OC)c1OC,-16,·,4,i,-2,2,6,18
CCCCCCCCCc1nc2sc3c(c2c(=O)n1NC(=O)c1ccc([N+](=O)[O-])cc1)CC(C)(C)OC3,28,·,-21,i,-11,-2,-19,-5

# Gathered by group: those above containing an aryl thioether with sulfur outside any ring (nine)
SMILES,Env fusion inh,Yeast UUG start,CSC inhib,Rce1 inhib,PABP FP inh,MT1-MMP act inh,MT1-MMP act inh RFP,eIF4H inh
C=CCn1c(N)cc(=O)nc1SC(CC)C(=O)Nc1ccc(C(C)=O)cc1 (stereo unspecified),-7,-2,-16,·,-8,-1,3,1
Cn1c(=O)[nH]c(=O)c2c1nc(Br)n2CCCSc1nc2ccccc2o1,0,-23,·,i,10,-2,-6,-6
C=CCn1c(SCC(=O)Nc2cc(Cl)ccc2C(=O)O)nc2sc(C)c(C)c2c1=O,-3,-21,38,·,·,2,2,·
CC(=O)C(Sc1ccc2nnc(-c3ccc(F)cc3)n2n1)C(C)=O,17,-18,-13,i,1,-2,0,-4
COCC(C)n1c(COc2ccccc2F)nnc1SCC(=O)Nc1oc(C)c2c(C)n[nH]c(=O)c12 (stereo unspecified),-1,31,-1,i,·,-5,-1,·
Cc1cc(-c2ccccc2)nc(SCc2ccc(C(=O)O)o2)n1,·,49,-6,i,4,-2,4,4
CC(=O)Nc1ccc(NC(=O)COC(=O)c2ccccc2SCC(=O)N2CCCC2)cc1,-9,-7,-9,i,·,3,1,·
CSc1ncnc2c1ncn2CCCNCc1ccccn1,-42,-17,·,·,·,1,8,·
COc1cc(NC(=O)CSc2nnc3c(n2)[nH]c2ccc(S(=O)(=O)NC(C)C)cc23)cc(OC)c1OC,-16,·,4,i,-2,2,6,18
